High-throughput results deposited in PubChem BioAssay by National Center for Advancing Translational Sciences (NCATS).
Lassa entry inh: Lassa virus entry inhibition; Lassa virus pseudotype entry inhibition, cell reporter; control for the full effect not named in the record; Potency, µM (series often up to 37.9 µM), for the others: top-dose activity change, negative = inhibition, usual class: inhibitors; actives 1.2% (n = 300,000); active means well fitted inhibition curve with a large enough effect; inconclusive means small, poorly fitted or top-dose-only effect, or effect the other way; inactive means flat fitted curve, though single readings scatter; tested in HEK293 cells; also: % is scaled to controls: 0 for no effect and ±100 for the full control effect; nearly all actives have a fitted effect of over 50% in size; luciferase read-out
Marburg entry inh: blocks Marburg virus binding to or entry into cells; Potency, µM (series often up to 37.8 µM), without a hit: at the top dose activity change, negative = inhibition, usual class: inhibitors; Marburg virus pseudotyped entry inhibition, cell reporter; control for the full effect not named in the record; about a third of the inactives were read at about 46 µM; actives 1.8% (n = 300,000); active = well fitted inhibition curve with a large enough effect; inconclusive = small, poorly fitted or top-dose-only effect, or effect the other way; inactive = flat fitted curve, though single readings scatter; tested in HEK293 cells; about a fifth of its hits are not listed in these tables; also: % is scaled to controls: 0 for no effect and ±100 for the full control effect; luciferase read-out
Cruzain noTriton: cruzain (T. cruzi) inhibition without detergent; actives 2.3% (n = 200,000); Potency, µM, inactives show max response, negative = inhibition, hits mostly inhibitors; AID 1476; purified cruzain, Z-FR-AMC fluorescence, no detergent; active = well fitted curve in the direction sought with a large enough effect; inconclusive = small, poorly fitted or top-dose-only effect, or another doubt; inactive = no such curve, though single readings can be large; an effect the other way counts as inactive or inconclusive;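 also: plate controls were enzyme without inhibitor for no effect and buffer without enzyme for full effect; nearly all actives have a fitted effect of over 40% in size; top concentration of the series not given in the record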
Target sequence (P25779 123-467 limits assumed): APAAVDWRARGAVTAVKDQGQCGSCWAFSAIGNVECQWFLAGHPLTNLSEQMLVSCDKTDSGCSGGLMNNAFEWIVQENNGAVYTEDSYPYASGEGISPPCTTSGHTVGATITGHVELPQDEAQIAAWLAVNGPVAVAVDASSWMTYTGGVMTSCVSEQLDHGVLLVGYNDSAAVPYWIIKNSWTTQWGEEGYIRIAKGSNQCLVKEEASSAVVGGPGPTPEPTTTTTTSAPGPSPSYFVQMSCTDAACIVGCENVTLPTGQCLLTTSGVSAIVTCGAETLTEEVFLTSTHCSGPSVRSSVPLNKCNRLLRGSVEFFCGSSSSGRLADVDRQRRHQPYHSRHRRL
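Purified cruzain at 1.5 nM, pre-incubated 15 min with compound at room temperature in 100 mM sodium acetate pH 5.5, 5 mM DTT, 0.00005% Triton X-100. Reaction started with 2 uM Z-FR-AMC; AMC fluorescence increase over 60 s gives rate.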
Cruzain inh Det: inhibitors of Trypanosoma cruzi cruzain with detergent; P25779; purified cruzain, Z-FR-AMC fluorescence, 0.01% Triton; Potency, µM, inactives show max response, negative = inhibition, hits mostly inhibitors; actives 0.43% (n = 200,000); active = well fitted curve in the direction sought with a large enough effect; inconclusive = small, poorly fitted or top-dose-only effect, or another doubt; inactive = no such curve, though single readings can be large; an effect the other way counts as inactive or inconclusive;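 also: plate controls were neutral wells for no effect and buffer without enzyme for full effect; nearly all actives have a fitted effect of over 40% in size; top concentration of the series not given in the record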
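Sodium acetate buffer (100 mM, pH 5.5) containing 5 mM DTT and 0.01% Triton X-100 hosted 1.5 nM cruzain and test compound for 15 min at room temperature. Cleavage of 2 uM Z-FR-AMC was then tracked by fluorescence.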
NS1 function inh: inhibitors of influenza NS1 protein function; S. cerevisiae slowed by influenza A NS1, growth recovery by OD600; AID 2326; Potency, µM (doses to about 46.1 µM), without a hit: top-dose activity, positive = more growth; actives 0.4% (n = 270,000); also: actives are rising curves; nearly all actives have a fitted effect of over 50% in size
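Recovery from NS1-induced slow growth read by OD600 in budding yeast switched to galactose assay medium (pH 6.0, -URA) at 1:100 dilution. Compound 23 nl per well; the matching strain lacking NS1 serves as control.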
SARS PLP yeast: inhibitors of SARS-CoV papain-like protease in yeast; S. cerevisiae expressing SARS-CoV PLpro, growth rescue; control for the full effect not named in the record; Potency, µM (doses to about 32.9 µM), without a hit: at the top dose activity, positive = growth rescue; actives 0.19% (n = 330,000); AID 485353; also: 0% is about no effect; nearly all actives have a fitted effect of over 55% in size; growth read by luminescence after 48 h
StopGo reporter: lowers the luciferase signal of an FMDV 2A StopGo reporter. human cells with a luciferase reporter of 2A StopGo recoding; control for the full effect not named in the record. Potency, µM (doses to about 57.9 µM), without a hit: at the top dose signal change, negative = less light. AID 1159524. actives 1.2% (n = 410,000); active = well fitted falling curve with a large enough effect; inconclusive = small, poorly fitted or top-dose-only effect; inactive = no such curve, though single readings can be large or run the other way; tested in HEK293T cells; also: % is scaled to controls: 0 for no effect and ±100 for the full control effect; nearly all actives have a fitted effect of over 45% in size; luciferase light after 4 h
RE007 growth inh: less growth of the S. pombe RE007 Vpr strain; Potency, µM (top dose mostly 92.2 µM), inactives show at the highest dose activity change, negative = less growth; actives 0.21% (n = 360,000); AID 651644; S. pombe RE007 Vpr strain, BacTiter-Glo ATP luminescence, 24 h; control for the full effect not named in the record; active = well fitted falling curve with a large enough effect; inconclusive = small, poorly fitted or top-dose-only effect; inactive = no such curve, though single readings can be large or run the other way;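 also: % is scaled to controls: 0 for no effect and ±100 for the full control effect; nearly all actives have a fitted effect of over 50% in size; the assay follows cell death caused by Vpr and the record does not say whether a fall means rescue or toxicity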
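Fission yeast RE007 carrying one integrated HIV-1 vpr copy, seeded at OD 0.01 in PMG+AL medium with 23 nL pinned compound. Grown 24 h at 30 degrees; viability read by BacTiter-Glo luminescence after 5 min.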
An asterisk follows results filed as active; ? = inconclusive; nt = not tested or not shown; & = joins results of further samples; [ ] = remark or other dose. Unless noted, calls follow the shape of the dose curve; as a rule, active means well fitted rising curve with a large enough effect; inconclusive means small, poorly fitted or top-dose-only effect; inactive means no such curve, though single readings can be large or run the other way. Potency is read from the fitted curve at half-maximal effect. No enrichment for hits. About 4.7% of those tested had a hit in this group.

| molecule | NS1 function inh | Lassa entry inh | Cruzain noTriton | Cruzain inh Det | Marburg entry inh | StopGo reporter | SARS PLP yeast | RE007 growth inh |
| --- | --- | --- | --- | --- | --- | --- | --- | --- |
| CC(CNC(=O)c1ccc(N)cc1)NC(=O)c1ccc(N)cc1 (stereo unspecified) | nt | 0.3% | nt | nt | ? | -0.1% | 3.6% | 2.5% |
| C/C(CC1(O)C(=O)N(Cc2ccccc2)c2ccccc21)=N\O (stereo unspecified) | 12.5% | -4.8% | 21.5% | 14.4% | 9.4%[46.1 µM] | 0.0% | nt | -9.5% |
| CCN(CC)S(=O)(=O)c1ccc(N=Nc2c(N)[nH]c(=O)[nH]c2=O)cc1 | -2.5% | -2.2% | nt | nt | 5.5%[46.1 µM] | 3.2% | 0.3% | -8.6% |
| O=C(C1CC(Cl)CN1S(=O)(=O)c1ccc(Cl)cc1)N1CCOCC1 (stereo unspecified) | nt | 5.2% | nt | nt | -9.7%[46.1 µM] | -2.3% | -4.3% | 4.1% |
| O=c1n(Cc2ccccc2)c2cc(Cl)cnc2n1Cc1ccccc1 | -102.9% | 9.2% | 1.2% | -5.3% | ? | -23.7% | -34.1% | 0.8% |
| CN(C(=O)COC(=O)c1sc2ccccc2c1Cl)C1CCCCC1 | -17.7% | 11.8% | -9.4% | -7.4% | ? | 6.4% | 11.9% | -7.9% |
| CC(=O)Nc1ccc(S(=O)(=O)NCC(CCC(=O)O)C(F)(F)F)cc1 (stereo unspecified) | nt | 10.6% | nt | nt | 29.4%[46.1 µM] | 0.2% | 4.4% | 15.9% |
| COC(=O)c1cn(NC(=O)Cc2cccc(C(F)(F)F)c2)c(=O)c2ccccc12 | nt | ? | nt | nt | ? | -1.2% | -0.2% | -12.4% |
| CC(=O)c1cccc(N(C(=O)CS(=O)CC(=O)Nc2ccc(F)cc2)C(C(=O)NC2CCCCC2)c2ccc(C)o2)c1 (stereo unspecified) | -2.9% | 3.1% | ? | -3.0% | -26.4% | -10.3% | 3.4% | -9.8% |
| CCOc1cc(C(=O)Nc2cc(C)ccn2)cc(OCC)c1OCC | -75.7% | ? | 17.6% | -0.4% | ? | -29.8% | -42.6% | -20.3% |
| COc1ccc(C(=O)/C=C/c2cc(C(=O)O)cc3c2OCOC3)c(O)c1 | 8.5% | -7.7% | nt | nt | -11.6%[46.1 µM] | ? | 1.2% | -15.9% |
| Cc1cccc(NC(=O)CCc2c(C)nc3c(c(C)nn3C(C)(C)C)c2C)c1C | nt | -5.2%[46.1 µM] | ? | -5.5% | -38.2%[46.1 µM] | 0.0% | nt | nt |
| CCOC(=O)N1CCN(c2c(NCCCN3CCCCCC3)c(=O)c2=O)CC1 | 3.5% | nt | -5.8% | -1.5% | nt | -8.6% | -2.2% | 9.9% |
| CC(OC(=O)CCN1C(=O)C2CC=CCC2C1=O)C(=O)Nc1cccc(Cl)c1 (stereo unspecified) | nt | ? | nt | nt | 11.8% | -23.3% | -5.1% | 1.1% |
| O=C(N/N=C/c1ccc2c(c1)OCO2)c1ccc2c(c1)OCCO2 | -2.9% | ? | -16.7% | -10.0% | ? | 10.1% | 1.8% | -0.1% |

Reprinted from the part before: three entries, then new ones.
| molecule | NS1 function inh | Lassa entry inh | Cruzain noTriton | Cruzain inh Det | Marburg entry inh | StopGo reporter | SARS PLP yeast | RE007 growth inh |
| --- | --- | --- | --- | --- | --- | --- | --- | --- |
| CCOC(=O)N1CCN(c2c(NCCCN3CCCCCC3)c(=O)c2=O)CC1 | 3.5% | nt | -5.8% | -1.5% | nt | -8.6% | -2.2% | 9.9% |
| CC(OC(=O)CCN1C(=O)C2CC=CCC2C1=O)C(=O)Nc1cccc(Cl)c1 (stereo unspecified) | nt | ? | nt | nt | 11.8% | -23.3% | -5.1% | 1.1% |
| O=C(N/N=C/c1ccc2c(c1)OCO2)c1ccc2c(c1)OCCO2 | -2.9% | ? | -16.7% | -10.0% | ? | 10.1% | 1.8% | -0.1% |
| CN(C)C(=O)c1ccc(NC(=O)c2cccnc2)cc1 | -3.1% | -2.6% | -2.2% | 2.6% | 0.7% | 15.7% | 6.8% | 1.7% |
| CCCCn1c(CNC(=O)C23CC4CC(CC(C4)C2)C3)nnc1SCC(=O)Nc1ccc(C)cc1 | nt | ? | ? | -0.3% | ? | -10.3% | nt | nt |
| COC(=O)c1cc(S(=O)(=O)N2CCN(c3ccc([N+](=O)[O-])cc3)CC2)c[nH]1 | 19.5% | nt | nt | nt | nt | 0.0% | 2.7% | 83.4% |
| O=C(N/N=C/c1cc(Br)cc(Br)c1O)c1cccc(S(=O)(=O)N2CCOCC2)c1 | 3.5% | ? | nt | nt | 24.3%[46.1 µM] | -22.3% | 2.1% | -3.9% |
| Cc1ccc(C)c(/C(O)=C2/C(=O)C(=O)N(CCN3CCOCC3)C2c2ccco2)c1 (stereo unspecified) | ? | 11.4% | 13.2% | -5.0% | -5.7%[46.1 µM] | 6.6% | -0.5% | -4.1% |
| Nc1c(Cl)ncnc1NCC(O)CO (stereo unspecified) | -2.1% | 25.9% | nt | nt | 13.7%[46.1 µM] | 1.1% | -0.4% | -0.3% |
| CCc1ccc(NC(=O)Cn2nc3c4ccccc4n(Cc4ccccc4)cc-3c2=O)cc1 | nt | 29.3%[46.1 µM] | -5.6% | -0.3% | nt | -15.7% | nt | nt |
| COC(=O)C(Cc1c[nH]c2ccccc12)NC(=O)c1ccc2nc[nH]c2c1 (stereo unspecified) | nt | -0.3%[46.1 µM] | nt | nt | ? | 32.3%[activator] | -0.2% | 20.4% |
| CSc1ncc2c(n1)-c1ccccc1N(Cc1ccc(Cl)cc1)S2(=O)=O | nt | 13.9%[46.1 µM] | -17.1% | 4.0% | nt | -14.3% | nt | nt |
| O=C(Cc1ccccc1)Nc1ccccc1C(=O)NCC1CCCO1 (stereo unspecified) | 4.7% | -13.5% | nt | nt | 28.6% | 2.1% | 2.7% | 1.7% |
| N#CCCN1CCN(S(=O)(=O)c2ccc(S(=O)(=O)NC3CCCC3)cc2)CC1 | -7.2% | 9.2% | 7.8% | -1.1% | 33.8%&33.8% | -8.7% | 10.2% | -1.7% |
| O=C(O)c1cc(-c2ccc(Cl)s2)[nH]n1 | -0.7% | 10.2% | nt | nt | 7.9%[46.1 µM] | -6.1% | -2.6% | -3.0% |
| COc1ccccc1N1CCN(CCCCOc2c(OC)cccc2OC)CC1 | 1.4% | ? | nt | nt | ? | -1.0% | 2.9% | 4.7% |
| CCOc1ccc2nc(N3CCCCCC3)sc2c1 | -25.5% | ? | -6.2% | -1.3% | ? | 32.2%[activator] | -1.9% | 2.9% |
| CCCCCN(C(=O)CCC(=O)OCC(=O)N(CC)c1ccccc1)c1c(N)n(CCCC)c(=O)[nH]c1=O | nt | -24.8% | nt | nt | 6.4%[46.1 µM] | -10.1% | 2.9% | -16.5% |
| COc1ccc(-c2nc3ccccn3c2NCc2ccc3c(c2)OCO3)cc1 | 4.0% | 15.0% | -12.8% | -13.0% | -8.0% | 14.1% | -5.7% | ? |
| COc1cc(OC)cc(-c2nnc(SCC(=O)Nc3ccc(C(=O)O)cc3)s2)c1 | nt | 1.6% | nt | nt | 17.0%[46.1 µM] | 38.8%[activator] | 6.5% | 1.2% |
| CC1(c2ccc([N+](=O)[O-])c(CS(=O)(=O)c3ccccc3)c2)OCCO1 | nt | -16.8% | nt | nt | 0.0%[46.1 µM] | 21.5% | 3.5% | 13.4% |
| CCOc1ccc(S(=O)(=O)N(C)CC(=O)NC2CCCC2)cc1 | -8.5% | -7.2% | nt | nt | 12.0% | 1.2% | 4.3% | 12.1% |
| COc1cc(O)c(C(CC(=O)N2CCN(c3ccccc3)CC2)c2ccc3c(c2)OCO3)c(OC)c1 (stereo unspecified) | -30.6% | nt | nt | nt | nt | -17.0% | -1.7% | -3.6% |
| Cc1c(N2C(=O)c3ccccc3C2=O)c(=O)n(-c2ccccc2)n1C | -0.1% | -3.8% | 6.7% | -0.8% | 16.4% | -1.1% | 7.9% | -24.5% |
| COc1ccc(N(CC(=O)Nc2cccnc2)S(C)(=O)=O)cc1 | 2.3% | 0.9% | nt | nt | -1.2%[46.1 µM] | 0.4% | 1.1% | -6.5% |
| CCCCN(C(=O)c1ccccc1Br)C1CCS(=O)(=O)C1 (stereo unspecified) | nt | 1.0% | nt | nt | 27.1% | -8.3% | -0.7% | 6.8% |
| CNC(=S)NCCN1CCOCC1 | 4.3% | 4.6% | 4.4% | 3.4% | ? | -19.8% | 4.8% | 1.9% |
| CC(=O)c1ccc(NC(=O)C(Cc2ccccc2)NS(=O)(=O)c2ccc3c(c2)CCC(=O)N3)cc1 (stereo unspecified) | nt | -6.0%[46.1 µM] | -5.7% | -9.6% | -1.2%[46.1 µM] | -4.4% | nt | nt |
| O=C1Nc2cc(C(=O)N3CCN(c4ccc(F)cc4)CC3)ccc2NC1CSCc1cccc(F)c1 (stereo unspecified) | 23.7% | -16.3% | nt | nt | -25.9%[46.1 µM] | -11.9% | -2.2% | -14.9% |
| COc1ccc2cc(C(C)C(=O)N3CCC(C(N)=O)CC3)ccc2c1 (stereo unspecified) | -0.4% | -6.0%[46.1 µM] | nt | nt | -2.9%[46.1 µM] | 25.1% | 3.0% | -15.1% |
| CC(NC(=O)C1CCN(C(=O)c2ccc(F)cc2)CC1)c1ccc(S(N)(=O)=O)cc1 (stereo unspecified) | nt | ? | nt | nt | 4.8% | -3.0% | -16.3% | -3.3% |
| O=c1ccc(-c2ccccc2)nn1Cc1ccc(F)cc1 | -6.9% | nt | nt | nt | nt | 2.9% | -1.0% | 23.0% |
| CCN1CCN(C(=S)NCCOC)CC1 | -0.6% | -0.1% | nt | nt | 0.8% | -12.0% | -1.3% | -9.5% |
